# StopGo reporter: High Throughput Screening for Foot and Mouth Disease Virus Antivirals; AID 1159524, 2015; 410,000 compounds, 1.2% hits; human cells with a luciferase reporter of 2A StopGo recoding; control for the full effect not named in the record; Potency, µM (doses to about 57.9 µM), without a hit: at the top dose signal change, negative = less light; active = well fitted falling curve with a large enough effect; inconclusive = small, poorly fitted or top-dose-only effect; inactive = no such curve, though single readings can be large or run the other way; tested in HEK293T cells; also: % is scaled to controls: 0 for no effect and ±100 for the full control effect; nearly all actives have a fitted effect of over 45% in size; luciferase light after 4 h
# Cruzain inh noDet: qHTS Assay for Promiscuous and Specific Inhibitors of Cruzain (without detergent). purified cruzain, Z-FR-AMC fluorescence, no detergent. 200,000 compounds, 2.3% hits. Potency, µM, inactives show max response, negative = inhibition, hits mostly inhibitors. Cruzipain (Trypanosoma cruzi), P25779;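 also: plate controls were enzyme without inhibitor for no effect and buffer without enzyme for full effect; nearly all actives have a fitted effect of over 40% in size; top concentration of the series not given in the record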
# Target sequence (P25779 123-467 limits assumed): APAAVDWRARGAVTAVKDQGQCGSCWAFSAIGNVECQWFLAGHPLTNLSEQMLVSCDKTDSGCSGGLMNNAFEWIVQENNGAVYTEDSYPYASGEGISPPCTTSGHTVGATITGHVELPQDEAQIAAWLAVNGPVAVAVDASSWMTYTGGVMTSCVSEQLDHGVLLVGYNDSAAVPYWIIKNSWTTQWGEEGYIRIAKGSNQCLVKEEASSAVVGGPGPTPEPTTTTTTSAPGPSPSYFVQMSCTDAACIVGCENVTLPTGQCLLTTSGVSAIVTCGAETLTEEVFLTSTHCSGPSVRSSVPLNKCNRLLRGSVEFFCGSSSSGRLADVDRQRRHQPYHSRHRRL
#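 Purified cruzain at 1.5 nM, pre-incubated 15 min with compound at room temperature in 100 mM sodium acetate pH 5.5, 5 mM DTT, 0.00005% Triton X-100. Reaction started with 2 uM Z-FR-AMC; AMC fluorescence increase over 60 s gives rate.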
# NS1 function inh: qHTS Assay for Inhibitors of Influenza NS1 Protein Function; 270,000 compounds, 0.4% hits; S. cerevisiae slowed by influenza A NS1, growth recovery by OD600; Potency, µM (doses to about 46.1 µM), without a hit: at the highest dose activity, positive = more growth; AID 2326, 2010; active means well fitted rising curve with a large enough effect; inconclusive means small, poorly fitted or top-dose-only effect; inactive means no such curve, though single readings can be large or run the other way; also: nearly all actives have a fitted effect of over 50% in size
#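 In this qHTS, NS1 from influenza A is expressed in budding yeast, where it slows growth. Cells are switched from glucose to 2% galactose medium (pH 6.0, -URA), treated with compound, and growth recovery is read at OD600.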
# LASV entry inh: qHTS for Inhibitors of binding or entry into cells for Lassa Virus. Potency, µM (series often up to 37.9 µM), inactives show at the highest dose activity change, negative = inhibition, actives largely listed as inhibitors. Lassa virus pseudotype entry inhibition, cell reporter; control for the full effect not named in the record. 300,000 compounds, 1.2% hits; active means well fitted inhibition curve with a large enough effect; inconclusive means small, poorly fitted or top-dose-only effect, or effect the other way; inactive means flat fitted curve, though single readings scatter; tested in HEK293 cells; also: % is scaled to controls: 0 for no effect and ±100 for the full control effect; nearly all actives have a fitted effect of over 50% in size; luciferase read-out
# RE007 growth inh: qHTS Assay for Inhibitors of the HIV-1 protein Vpr. S. pombe RE007 Vpr strain, BacTiter-Glo ATP luminescence, 24 h; control for the full effect not named in the record. Potency, µM (titrated, usually from 92.2 µM), inactives show at the highest dose activity change, negative = less growth. 360,000 compounds, 0.21% hits; active = well fitted falling curve with a large enough effect; inconclusive = small, poorly fitted or top-dose-only effect; inactive = no such curve, though single readings can be large or run the other way;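 also: % is scaled to controls: 0 for no effect and ±100 for the full control effect; nearly all actives have a fitted effect of over 50% in size; the assay follows cell death caused by Vpr and the record does not say whether a fall means rescue or toxicity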
#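 Fission yeast RE007 carrying one integrated HIV-1 vpr copy, seeded at OD 0.01 in PMG+AL medium with 23 nL pinned compound. Grown 24 h at 30 degrees; viability read by BacTiter-Glo luminescence after 5 min.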
# MARV entry inh: qHTS for inhibitors of binding or entry into cells for Marburg Virus. Marburg virus pseudotyped entry inhibition, cell reporter; control for the full effect not named in the record; about a third of the inactives were read at about 46 µM. Potency, µM (highest dose often 37.8 µM), for inactives: at the highest dose activity change, negative = inhibition, actives largely listed as inhibitors. 300,000 compounds, 1.8% hits. AID 540276, 2011; active = well fitted inhibition curve with a large enough effect; inconclusive = small, poorly fitted or top-dose-only effect, or effect the other way; inactive = flat fitted curve, though single readings scatter; tested in HEK293 cells; about a fifth of its hits are not listed in these tables; also: % is scaled to controls: 0 for no effect and ±100 for the full control effect; luciferase read-out
# SARS PLpro yeast: qHTS of Yeast-based Assay for SARS-CoV PLP. S. cerevisiae expressing SARS-CoV PLpro, growth rescue; control for the full effect not named in the record. Potency, µM (series often up to 32.9 µM), without a hit: at the top dose activity, positive = growth rescue. 330,000 compounds, 0.19% hits. AID 485353, 2010; active means well fitted rising curve with a large enough effect; inconclusive means small, poorly fitted or top-dose-only effect; inactive means no such curve, though single readings can be large or run the other way; also: 0% is about no effect; nearly all actives have a fitted effect of over 55% in size; growth read by luminescence after 48 h
# Cruzain inh Det: qHTS Assay for Promiscuous and Specific Inhibitors of Cruzain (with detergent) | Cruzipain (Trypanosoma cruzi), P25779 | purified cruzain, Z-FR-AMC fluorescence, 0.01% Triton | Potency, µM, inactives show max response, negative = inhibition, hits mostly inhibitors | 200,000 compounds, 0.43% hits;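 also: plate controls were neutral wells for no effect and buffer without enzyme for full effect; nearly all actives have a fitted effect of over 40% in size; top concentration of the series not given in the record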
#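 Steps: dispense cruzain (1.5 nM final) in acetate buffer pH 5.5 with DTT and 0.01% Triton X-100; pin-transfer compounds; incubate 15 min RT; add Z-FR-AMC (2 uM final); read fluorescence every 30 s, using the 60 s intensity change.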
# Numbers without * were called inactive; ? = inconclusive; . = no result given; & = joins results of further samples; [ ] = remark or other dose. Unless noted, calls follow the shape of the dose curve; as a rule, active = well fitted curve in the direction sought with a large enough effect; inconclusive = small, poorly fitted or top-dose-only effect, or another doubt; inactive = no such curve, though single readings can be large; an effect the other way counts as inactive or inconclusive. Potency is read from the fitted curve at half-maximal effect.
# Every second line gives: StopGo reporter | Cruzain inh noDet | NS1 function inh | LASV entry inh | RE007 growth inh | MARV entry inh | SARS PLpro yeast | Cruzain inh Det
COc1cc(C(=O)Nc2nc3ccc(C)cc3s2)ccc1OCc1c(C)noc1C
 : ? | -4% | ? | -6% | 0% | -3% | 12% | -2.6%
Cc1cc(=O)n2c3ccccc3n(C)c2n1
 : -3% | . | -15% | 25% | -17% | ? | -4% | .
Cc1ccc(S(=O)(=O)c2c(N)n(CCCN(C)C)c3nc4ccccc4nc23)cc1
 : 25% | . | -9% | . | 1% | . | 0% | .
COc1ccc(CNC(=O)CS(=O)(=O)Cc2nc(-c3ccc(OC)cc3)oc2C)cc1
 : 22% | . | 10% | -1%[46.1 µM] | 1% | 19%[46.1 µM] | ? | .
CC(C)(C)NC(=O)NC(=O)CN1CCN(S(=O)(=O)/C=C/c2ccccc2)CC1
 : -7% | . | -15% | . | 20% | 0%[46.1 µM] | 2% | .
CCOC(=O)C1=NNC(C(=O)c2ccccc2)C1c1ccc(Cl)cc1 (centres undefined)
 : -14% | . | 2% | -38%[46.1 µM] | -7% | ? | -6% | .
COC(=O)C1CCN(C(=O)C2CCCCC2)CC1
 : 13% | -4% | ? | 16% | 19% | -1% | 3% | 4.3%
Cn1c(=O)oc2cc(S(=O)(=O)NCc3cccnc3)ccc21
 : -12% | . | -1% | -4% | 14% | 5%[46.1 µM] | 0% | .
Clc1ccc(Cc2ccc(SCc3ccccc3)nn2)c(Cl)c1
 : -18% | -20% | 2% | 1% | 7%[3.69 µM] | -16% | -8% | 1.4%
O=C(Nc1cccc(C(=O)N2CCCCC2)c1)c1nsc2ccccc12
 : 8% | 1% | . | ? | . | . | . | -1.3%
O=C(COc1ccc2c(c1)CCC2)Nc1ccccn1
 : -87% | . | . | 11µM* | ? | ? | 2% | .
COC(=O)c1ccc(NC(=O)c2nn(C)c3c2CS(=O)(=O)c2ccccc2-3)cc1
 : -12% | 6% | . | 4%[46.1 µM] | . | . | . | -5.3%
Cc1ccccc1NC(NC(=O)c1cccs1)C(Cl)(Cl)Cl (centres undefined)
 : -29% | -12% | -39% | -17% | -14% | ? | -29% | -5.1%
COC(=O)Cn1c(=O)c2c(nc3n2CCN3c2ccc(F)cc2)n(C)c1=O
 : 6% | 12% | . | -21%[46.1 µM] | . | . | . | -3.1%
O=C(CCC(=O)N(CC(=O)NC1CCCCC1)c1ccc(F)cc1)Nc1ccccn1
 : -10% | . | 10% | -4% | -1% | 6%[46.1 µM] | . | .
CN1CCN(NC(=O)c2cc(-c3ccccn3)nc3ccccc23)CC1
 : -9% | . | . | 3% | 3% | 6% | -2% | .
CC(=O)C1=C(O)C(=O)OC1c1ccc(Cl)cc1 (centres undefined)
 : -5% | . | -1% | 11%[46.1 µM] | 1% | ? | 1% | .
CCOc1ccc(S(=O)(=O)Nc2cccc(C(=O)N3CCN(c4cccc(OC)c4)CC3)c2)cc1
 : ? | . | . | ? | 1% | -23%[46.1 µM] | 3% | .
Cc1cc(=O)[nH]c(SCC(=O)N2CCCC(C)C2)n1 (centres undefined)
 : 1% | . | 2% | 11%[46.1 µM] | -11% | -2%[46.1 µM] | 1% | .
S=c1sc2c(Cl)ncnc2n1-c1ccccc1
 : ? | . | . | 23µM* | -13% | 23µM* | -17% | .
CSc1cc(-c2ccc(Cl)cc2)n(Cc2ccccc2)c(=O)c1C#N
 : ? | 25µM* | 4% | 7% | 3% | 5% | -1% | 1.4%
COCCc1nc2ccc(C(=O)N3CCCCC3COC)cc2o1 (centres undefined)
 : 60%[activator] | . | -3% | . | 4% | . | 4% | .
CC(=O)Nc1ccc(Nc2cc(C)nc3c(-c4ccc(Cl)cc4)c(C)nn23)cc1
 : ? | 10% | 8% | ? | 25% | ? | -64% | -3.7%
Cc1cccc(-c2noc(CSc3ccccc3)n2)c1
 : 37%[activator] | 4% | 2% | -26% | ? | 12% | -7% | -6.9%
CCOc1ccc(-n2cc(C(=O)N3CCN(C)CC3)c3cc(OC)c(OC)cc3c2=O)cc1
 : 3% | -2% | -1% | 20% | -6% | 10%[46.1 µM] | 2% | 0.8%
COc1ccc(C(=O)CNc2cccc(F)c2)cc1
 : 26% | . | -8% | ? | -6% | 24%[46.1 µM] | -5% | .
O=C(c1cc(Br)ccc1Cl)N1CCN(c2ncccn2)CC1
 : -16% | . | -6% | 12%[46.1 µM] | -1% | -5%[46.1 µM] | 0% | .
COC(=O)Cc1cc(=O)oc2cc(OC)ccc12
 : 23% | 2% | -1% | 13% | 16% | -7% | 2% | -4.6%
COc1ccccc1C(=O)C1CCCN(C(=O)c2ccc(C(C)=O)s2)C1 (centres undefined)
 : -9% | . | 15% | -22%[46.1 µM] | 0% | 4%[46.1 µM] | 0% | .
O=C(O)COc1ccc(-c2nc(-c3ccccc3)c(-c3ccccc3)[nH]2)cc1
 : 9% | . | 10% | 1% | 4% | -20% | -1% | .
COc1ccc(NC(=O)c2oc3ccc4c(c3c2C)C(=O)CC(C)(C)O4)cc1OC
 : 19% | ? | . | -22%[46.1 µM] | . | . | . | -8.6%
COc1ccc(Cl)cc1NC(=O)NCCN1CCNC1=O
 : -5% | . | 6% | ? | 14% | -17% | 1% | .
CN(C)CCCNC(=O)CC(c1ccc(F)cc1)c1ccco1 (centres undefined)
 : -22% | -5% | -3% | 12% | 5% | -9% | -2% | 1.7%
O=C(Nc1cc(-c2nc3ccccc3s2)ccc1Cl)c1cc2ccccc2o1
 : 47%[activator] | 2% | . | 8%[46.1 µM] | . | . | . | 0.1%
CC(C)C(=O)Nc1cc2c3c(c1)CCC(=O)N3CCC2
 : -5% | . | 7% | . | -19% | . | 0% | .
CC1(C)NC(=S)NC1=S
 : -21% | . | . | 13% | 2% | 3% | . | .
O=C(NCc1ccccc1)C(c1ccc(F)cc1)N(C(=O)c1csnn1)C1CCCC1 (centres undefined)
 : 13% | . | -2% | -1% | 0% | ? | -17% | .
CC(=O)NCC(=O)N1CCCC(C(=O)c2ccc(Oc3ccccc3)cc2)C1 (centres undefined)
 : 12% | . | -6% | 4% | 14% | 3%[46.1 µM] | -3% | .
COc1ccc(S(=O)(=O)N2CCC(O)(c3cccnc3)CC2)cc1OC
 : -12% | . | . | 4% | 13% | 20%[46.1 µM] | 5% | .
COc1cc(NC(=S)N2CCCC2)cc(OC)c1
 : 12% | . | 3% | . | -6% | . | 0% | .
Cn1c(=O)c2c(nc(Oc3ccccc3Cl)n2C)n(C)c1=O
 : ? | . | -4% | 19%[46.1 µM] | 4% | 16%[46.1 µM] | 0% | .
COC(=O)CN(c1ccc2c(c1)OCCO2)S(=O)(=O)c1ccccc1
 : -8% | 2% | -9% | -1% | -1% | 15% | 0% | 1.7%
COc1ccccc1NC(=O)NCCc1c[nH]c2ccccc12
 : 2% | . | -1% | . | -4% | . | -1% | .
O=C(NCCCn1ccnc1)c1ccc(S(=O)(=O)N2CCCCCC2)cc1
 : -21% | ? | -2% | -8% | -3% | -1% | -3% | 4.2%
Cc1ccc(CNC(=O)c2ccc(N3CCC4(CC3)CC(c3ccccc3)=NO4)c([N+](=O)[O-])c2)cc1
 : ? | . | -7% | . | 57% | . | -1% | .
S=c1[nH]nc(-c2ccccc2)n1Cc1ccccc1
 : -16% | -1% | 9% | 11% | 4% | 8%&8% | ? | 3.4%
COc1cc(/C=N/NC(N)=S)ccc1OCC(=O)Nc1ccc(C)c(C)c1
 : -14% | 13µM* | 20% | ? | 16% | -12% | . | 16µM*
CC(C)CNC(=O)COC(=O)/C=C/c1ccccc1[N+](=O)[O-]
 : -10% | 6% | 6% | 7% | 0% | 5% | . | -0.5%
O=C(CC1(O)C(=O)N(C/C=C/c2ccccc2)c2ccccc21)c1ccccn1 (centres undefined)
 : -16% | ? | -36% | ? | 0% | -15% | -3% | -2.4%
CCn1c(=O)c2cc(C(=O)Nc3cc(OC)c(OC)c(OC)c3)sc2c2ccccc21
 : ? | ? | . | 9%[46.1 µM] | . | -5%[46.1 µM] | . | -0.7%
Cc1cccc(N2CCN(CC(=O)Nc3nccs3)CC2)c1C
 : -23% | 2% | -10% | ? | 2% | ? | 4% | 3.1%
Cc1cc(NC(=O)CCC(=O)N(CC(=O)NCC2CCCO2)c2ccc(C)c(C)c2)no1 (centres undefined)
 : 3% | . | -3% | 5% | 2% | 4%[46.1 µM] | 7% | .
Cc1ccc(S(=O)(=O)N(CC#N)CC#N)cc1
 : 14% | . | 5% | 0% | 8% | 2%[46.1 µM] | 0% | .
CCOC(=O)C1=C(CNCc2ccc(F)cc2)NC(=O)NC1c1cccc([N+](=O)[O-])c1 (centres undefined)
 : -9% | . | . | 7% | -3% | ? | 0% | .
O=C(Nc1cccc(S(=O)(=O)N2CCOCC2)c1)c1ccc(Cl)c([N+](=O)[O-])c1
 : 40µM* | . | . | 3%[46.1 µM] | 10% | ? | 0% | .
O=C1CCN(Cc2ccccc2)CCN1[C@H](CSc1ccccc1)c1ccccc1
 : 2% | . | 8% | . | -18% | . | 3% | .

# 3 neighbouring records from above, quoted:
# Every second line gives: StopGo reporter | Cruzain inh noDet | NS1 function inh | LASV entry inh | RE007 growth inh | MARV entry inh | SARS PLpro yeast | Cruzain inh Det
CC(C)CNC(=O)COC(=O)/C=C/c1ccccc1[N+](=O)[O-]
 : -10% | 6% | 6% | 7% | 0% | 5% | . | -0.5%
O=C(CC1(O)C(=O)N(C/C=C/c2ccccc2)c2ccccc21)c1ccccn1 (centres undefined)
 : -16% | ? | -36% | ? | 0% | -15% | -3% | -2.4%
CCn1c(=O)c2cc(C(=O)Nc3cc(OC)c(OC)c(OC)c3)sc2c2ccccc21
 : ? | ? | . | 9%[46.1 µM] | . | -5%[46.1 µM] | . | -0.7%

# Screens from PubChem BioAssay.
